SARS PLpro yeast = inhibitors of SARS-CoV papain-like protease in yeast. S. cerevisiae expressing SARS-CoV PLpro, growth rescue; control for the full effect not named in the record. Potency, µM (titrated, usually from 32.9 µM), inactives show top-dose activity, positive = growth rescue. hit rate 0.19% among 330,000. AID 485353; active means well fitted rising curve with a large enough effect; inconclusive means small, poorly fitted or top-dose-only effect; inactive means no such curve, though single readings can be large or run the other way; further: 0% is about no effect; nearly all actives have a fitted effect of over 55% in size; growth read by luminescence after 48 h
RE007 growth inh = less growth of the S. pombe RE007 Vpr strain | S. pombe RE007 Vpr strain, BacTiter-Glo ATP luminescence, 24 h; control for the full effect not named in the record | Potency, µM (top dose mostly 92.2 µM), for inactives: top-dose activity change, negative = less growth | hit rate 0.21% among 360,000 | AID 651644; active = well fitted falling curve with a large enough effect; inconclusive = small, poorly fitted or top-dose-only effect; inactive = no such curve, though single readings can be large or run the other way;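 further: on the % scale 0 is the no-effect control and ±100 the full control effect; nearly all actives have a fitted effect of over 50% in size; the assay follows cell death caused by Vpr and the record does not say whether a fall means rescue or toxicity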
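Fission yeast RE007 carrying one integrated HIV-1 vpr copy, seeded at OD 0.01 in PMG+AL medium with 23 nL pinned compound. Grown 24 h at 30 degrees; viability read by BacTiter-Glo luminescence after 5 min.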
MARV entry inh = inhibitors of Marburg virus binding or cell entry. hit rate 1.8% among 300,000. Potency, µM (highest dose often 37.8 µM), without a hit: at the top dose activity change, negative = inhibition, most hits filed as inhibitors. AID 540276. Marburg virus pseudotyped entry inhibition, cell reporter; control for the full effect not named in the record; about a third of the inactives were read at about 46 µM; active = well fitted inhibition curve with a large enough effect; inconclusive = small, poorly fitted or top-dose-only effect, or effect the other way; inactive = flat fitted curve, though single readings scatter; tested in HEK293 cells; about a fifth of its hits are not listed in these tables; further: on the % scale 0 is the no-effect control and ±100 the full control effect; luciferase read-out
Cruzain inh noDet = inhibitors of Trypanosoma cruzi cruzain without detergent; P25779; purified cruzain, Z-FR-AMC fluorescence, no detergent; Potency, µM, without a hit: max response, negative = inhibition, usual class: inhibitors; hit rate 2.3% among 200,000; AID 1476;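 further: plate controls were enzyme without inhibitor for no effect and buffer without enzyme for full effect; nearly all actives have a fitted effect of over 40% in size; top concentration of the series not given in the record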
Target sequence (P25779 123-467 limits assumed): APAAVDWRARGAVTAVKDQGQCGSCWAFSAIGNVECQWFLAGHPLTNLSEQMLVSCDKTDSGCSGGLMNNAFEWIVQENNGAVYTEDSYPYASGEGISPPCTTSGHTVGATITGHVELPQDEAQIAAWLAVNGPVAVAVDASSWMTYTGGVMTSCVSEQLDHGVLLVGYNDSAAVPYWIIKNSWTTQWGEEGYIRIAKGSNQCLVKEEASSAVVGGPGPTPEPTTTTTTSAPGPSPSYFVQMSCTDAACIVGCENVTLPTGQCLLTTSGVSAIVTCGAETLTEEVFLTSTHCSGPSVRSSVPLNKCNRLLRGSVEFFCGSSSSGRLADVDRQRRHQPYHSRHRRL
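Purified cruzain at 1.5 nM, pre-incubated 15 min with compound at room temperature in 100 mM sodium acetate pH 5.5, 5 mM DTT, 0.00005% Triton X-100. Reaction started with 2 uM Z-FR-AMC; AMC fluorescence increase over 60 s gives rate.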
NS1 inh = blocks influenza NS1 protein function. S. cerevisiae slowed by influenza A NS1, growth recovery by OD600. Potency, µM (highest dose often 46.1 µM), for inactives: at the highest dose activity, positive = more growth. AID 2326. hit rate 0.4% among 270,000; active means well fitted rising curve with a large enough effect; inconclusive means small, poorly fitted or top-dose-only effect; inactive means no such curve, though single readings can be large or run the other way; further: nearly all actives have a fitted effect of over 50% in size
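Read-out: OD600 growth recovery of NS1-expressing budding yeast. Cells grown overnight at 30C in -URA glucose medium, washed, resuspended and diluted 1:100 in 2% galactose assay medium, pH 6.0. Same strain lacking NS1 served as positive control.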
Lassa entry inh = blocks Lassa virus binding to or entry into cells; hit rate 1.2% among 300,000; Potency, µM (top dose mostly 37.9 µM), for the others: top-dose activity change, negative = inhibition, hits mostly inhibitors; Lassa virus pseudotype entry inhibition, cell reporter; control for the full effect not named in the record; active means well fitted inhibition curve with a large enough effect; inconclusive means small, poorly fitted or top-dose-only effect, or effect the other way; inactive means flat fitted curve, though single readings scatter; tested in HEK293 cells; further: on the % scale 0 is the no-effect control and ±100 the full control effect; nearly all actives have a fitted effect of over 50% in size; luciferase read-out
Cruzain inh Det = blocks cruzain activity in presence of Triton detergent; P25779; purified cruzain, Z-FR-AMC fluorescence, 0.01% Triton; Potency, µM, without a hit: max response, negative = inhibition, actives largely listed as inhibitors; hit rate 0.43% among 200,000;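 further: plate controls were neutral wells for no effect and buffer without enzyme for full effect; nearly all actives have a fitted effect of over 40% in size; top concentration of the series not given in the record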
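Steps: dispense cruzain (1.5 nM final) in acetate buffer pH 5.5 with DTT and 0.01% Triton X-100; pin-transfer compounds; incubate 15 min RT; add Z-FR-AMC (2 uM final); read fluorescence every 30 s, using the 60 s intensity change.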
StopGo reporter = FMDV 2A StopGo reporter, luciferase signal. Potency, µM (titrated, usually from 57.9 µM), inactives show at the highest dose signal change, negative = less light. AID 1159524. hit rate 1.2% among 410,000. human cells with a luciferase reporter of 2A StopGo recoding; control for the full effect not named in the record; active = well fitted falling curve with a large enough effect; inconclusive = small, poorly fitted or top-dose-only effect; inactive = no such curve, though single readings can be large or run the other way; tested in HEK293T cells; further: on the % scale 0 is the no-effect control and ±100 the full control effect; nearly all actives have a fitted effect of over 45% in size; luciferase light after 4 h
An asterisk follows results filed as active; ? = inconclusive; . = no result given; [ ] = remark or other dose. Unless noted, the call rests on the fitted dose curve; in most records, active means well fitted curve in the direction sought with a large enough effect; inconclusive means small, poorly fitted or top-dose-only effect, or another doubt; inactive means no such curve, though single readings can be large; an effect the other way counts as inactive or inconclusive. Potency means the concentration at half of the fitted maximal effect.

SMILES | SARS PLpro yeast | RE007 growth inh | MARV entry inh | Cruzain inh noDet | NS1 inh | Lassa entry inh | Cruzain inh Det | StopGo reporter
Cc1cc2oc(=O)cc(CN3CCC(C)CC3)c2cc1Cl | -2% | -11% | ? | 3% | -6% | 16% | -4.5% | 28%
Cc1cc(Cl)ccc1OCCCC(=O)N1CCN(C(=O)c2ccco2)CC1 | -3% | 22% | ? | ? | -10% | 3% | -3.7% | -23%
CCOC(=O)c1c(S(=O)(=O)NCC(=O)Nc2ccc(F)cc2F)c(C)n(C)c1C | 0% | 3% | . | . | -1% | . | . | 4%
COc1ccc(S(=O)(=O)N(C(C)=O)c2ccc(OC(C)=O)c3ccccc23)cc1[N+](=O)[O-] | -5% | 15% | 2% | 13% | 11% | . | -4.9% | -14%
O=C1Nc2ccccc2C1c1ncc(C(F)(F)F)cc1Cl (stereo not drawn) | 1% | 4% | . | . | 17% | . | . | -21%
CN(C)C(CNC(=O)c1cccc(OC(F)F)c1)c1ccco1 (stereo not drawn) | 7% | -16% | -2% | 7% | 17% | -3% | -2.0% | 22%
CCCc1cc(=O)oc2c(C)c(OS(C)(=O)=O)ccc12 | . | 21% | 13%[46.1 µM] | . | . | 6% | . | -17%
Cc1ccc(CCNC(=O)C2CCN(S(=O)(=O)N3CCC4(CC3)OCCO4)CC2)cc1 | -7% | -19% | ? | -11% | 0% | -1% | 4.2% | .
Cc1ccc(NC(=O)Cn2cccc2C2=NC(c3ccccc3)CO2)cc1C (stereo not drawn) | 6% | 11% | ? | 12% | 7% | -2% | -4.0% | 0%
O=C(COc1ccc(S(=O)(=O)N2CCCCC2)cc1Cl)N1CCCC1 | -1% | -3% | 10%[46.1 µM] | . | 0% | 5%[46.1 µM] | . | -4%
CCN(CC)C(=O)Cn1cc(C(=O)C(=O)NCCCN2CCCCC2)c2ccccc21 | -2% | 0% | -13% | . | 0% | -1% | . | -11%
CC(=O)N1CN2CN(C(C)=O)CC(C(=O)c3ccccc3)(C2)C1 | -7% | 18% | ? | 2% | 4% | -1% | 7.4% | -17%
CC(C)(C)c1ccc(C(CC(=O)O)NC(=O)Cc2ccccc2)cc1 (stereo not drawn) | 0% | 6% | 3%[46.1 µM] | . | 8% | 26%[46.1 µM] | . | -11%
COc1ccc(-c2noc(CCC(=O)NCC3CCN(Cc4cccc(C)c4)CC3)n2)cc1 | 0% | -3% | ? | -5% | 0% | 12% | 1.0% | ?
CC(=O)c1cccc(NS(=O)(=O)c2ccc(NC(=O)N3CCCCC3)cc2)c1 | -4% | 2% | 2.2µM* | . | -5% | ? | . | ?
O=C1NC(=O)N(CCc2ccc(F)cc2)C(=O)/C1=C/c1cccs1 | 1% | 31% | -2% | . | . | 8% | . | ?
COc1ccc2cc(CN(CC3CCCO3)C(=O)Nc3ccccc3OC)c(=O)[nH]c2c1 (stereo not drawn) | -1% | 0% | ? | . | 0% | . | . | -14%
CCCCn1c(N)c(N(CC(C)C)C(=O)c2cc(-c3ccco3)nc3ccccc23)c(=O)[nH]c1=O | ? | 9% | 16% | . | . | 1% | . | 5%
Cc1cc(C(=O)OCC(=O)c2ccccc2)c2ccccc2n1 | -2% | 9% | 13%[46.1 µM] | . | -16% | 10% | . | -23%
Cc1ccc(NS(=O)(=O)c2c(C(=O)N3CCCCCC3)c(C)n(C)c2C)cc1F | . | . | . | 23% | . | -7%[46.1 µM] | -2.4% | 26%
Nc1ncnc(Nc2ccccc2C(F)(F)F)n1 | -1% | 5% | 0% | 3% | -1% | 4% | 3.8% | 6%
CCOC(=O)Cc1csc(NC(=O)CN2CCN(c3ccccc3)CC2)n1 | 2% | -1% | . | . | 10% | . | . | -24%
Cc1cc(CN(C)C(=O)c2ccc(OC3CCN(CCc4ccccc4)CC3)cc2)on1 | 4% | -1% | 3.2µM* | . | 3% | 24%[46.1 µM] | . | 0%
CCOC(=O)N1CCN(C(=S)Nc2cc(OC)c(OC)cc2C(=O)OC)CC1 | -11% | -6% | 0% | 6% | -7% | ? | 3.0% | -3%
CC12CC(c3ccccc3O1)C(C(=O)NCc1ccccc1)C(=O)N2 (stereo not drawn) | 2% | -6% | 7% | 3% | -7% | -11% | 0.9% | 10%
Cc1ccccc1OCc1nnc(SCc2cc(=O)[nH]c3ccccc23)o1 | 8% | -10% | 3% | -4% | 10% | -7% | -9.2% | 13%
COc1cccc(NC(=S)N2CCN(C/C=C/c3ccccc3)CC2)c1 | -6% | -12% | -2% | 6% | -39% | -2% | 6.1% | ?
O=C(CCN1C(=O)C2C3C=CC(C3)C2C1=O)NCCN1CCCc2ccccc21 (stereo not drawn) | 1% | 4% | 10% | -2% | 8% | 0% | 4.6% | 9%
C/C(=N\NC(=O)c1ccc(Cl)cc1)c1ccc(N2CCOCC2)cc1 | 14% | -8% | 2% | ? | -11% | 8% | -3.5% | 0%
O=C(COC(=O)C1C2CC3OC(=O)C1C3C2)Nc1cccc(Cl)c1 (stereo not drawn) | -17% | -4% | 25%[46.1 µM] | . | 18% | 15%[46.1 µM] | . | 28%
CC(C)c1ccc(NC(=O)[C@@H](NC(=O)N2CC(=O)Nc3ccccc32)C(C)C)cc1 | -4% | 3% | . | . | -9% | . | . | -2%
CCOC(=O)N1CCN(C(=O)C(C)N(c2ccccc2)S(C)(=O)=O)CC1 (stereo not drawn) | 0% | 3% | 0%[14.2 µM] | . | 2% | -6% | . | -4%
Cc1cc(N2CCOCC2)ccc1/C=C\[N+](=O)[O-] | -82% | 7.9µM* | ? | -1% | -77% | 21µM* | -1.2% | ?
Cc1nc(CN(C)Cc2nc(Cc3cccc(F)c3)no2)cs1 | 1% | 3% | 1%[46.1 µM] | . | -1% | 10%[46.1 µM] | . | 13%
O=C1/C(=C/c2ccccn2)SC(=S)N1c1ccc(O)cc1 | 3% | -16% | . | . | 11% | . | . | 44%[activator]
Cc1ccc2c(c1)CC1(CN2C)C(=O)NC(=O)N(CCc2ccccc2)C1=O (stereo not drawn) | 1% | -1%[3.69 µM] | -9% | 7% | -5% | -25% | -1.5% | 2%
O=CNc1ccc(OC(=O)c2cncc(Br)c2)cc1 | 6% | 15% | 28%[46.1 µM] | . | 5% | 17% | . | -13%
COc1ccc(CNS(=O)(=O)c2ccc3c(c2)C(C)(C)C(=O)N3C)cc1 | 24% | 1% | . | . | 11% | . | . | 0%
Cc1ccc(-c2c(C#N)c(N)nc3c2CCCCC3)cc1 | 4% | -19% | 14% | ? | -5% | -6% | -7.3% | -15%
Cc1ccc2c(CN3C(=O)NC(C)(c4ccc5c(c4)OCO5)C3=O)cc(=O)oc2c1 (stereo not drawn) | 5% | 13% | ? | -1% | 4% | -1% | -3.0% | 8%
Cc1ccc(C)c(Nc2nc3ccc(C)cc3n3cnnc23)c1 | -2% | -20% | -22% | . | -7% | ? | . | -11%
Cc1cc(=O)n2[nH]c(C)c(-c3ccccc3)c2n1 | 2% | 4% | 30% | -3% | 4% | 5% | 1.4% | 0%
O=C(NCc1ccco1)C1CCN(c2ccc(S(=O)(=O)N3CCOCC3)cc2[N+](=O)[O-])CC1 | -7% | 1% | 0%[46.1 µM] | . | -10% | -5%[46.1 µM] | . | 0%
N#CCC(=O)Nc1ccc(C(=O)OCC(=O)c2ccc3c(c2)OCCO3)cc1 | -3% | -2% | 1%[46.1 µM] | . | . | -27% | . | -21%
CCN(CC)C(=O)CSCc1cnn(-c2ccccc2)c1-n1cccc1 | -32% | 10% | -5% | ? | -15% | -20% | 4.7% | ?
COc1ccccc1CCNC(=O)C(C)Sc1nc(-c2ccccc2)cc(C(F)(F)F)n1 (stereo not drawn) | . | . | -11%[46.1 µM] | -9% | . | 6%[46.1 µM] | -2.1% | 0%
O=C(c1ccco1)N(Cc1cccc(F)c1)C1CCS(=O)(=O)C1 (stereo not drawn) | 12% | 15% | . | . | -3% | . | . | -18%
CC(=O)Nc1cccc(Nc2nc(-c3ccccc3F)nc3ccccc23)c1 | -2% | -8% | ? | . | . | -29%[46.1 µM] | . | -27%
Cc1ccc(NC(NC(=O)c2cccs2)C(Cl)(Cl)Cl)cc1C (stereo not drawn) | -21% | 43% | -27% | -3% | -34% | ? | -6.1% | ?
CCCC(=O)Nc1ccc(C)c(O)c1 | -5% | 28% | ? | 9% | 2% | ? | 1.8% | -23%
CC(=O)c1ccc(OCC(O)CN(C)Cc2cccs2)cc1 (stereo not drawn) | 5% | -10% | 5% | -2% | 2% | 0% | 5.1% | 1%
CN1CCN(C(=O)CCN2C(=O)/C(=C/c3ccc(F)cc3)SC2=S)CC1 | -1% | 6% | ? | . | 1% | -17% | . | ?
CCc1cccc(CC)c1-n1c(SCC(=O)N2CCc3ccccc32)nc(O)cc1=O | 0% | 2% | ? | . | . | -11%[46.1 µM] | . | -17%
COc1cccc(NC(=O)CN(C)C(=O)CN2C(=O)c3ccc([N+](=O)[O-])cc3C2=O)c1 | 1% | -7% | 13%[46.1 µM] | . | . | 11% | . | 1%
CC(=O)Nc1ccc(NC(=O)CC(C)n2ccnc2)cc1 (stereo not drawn) | -1% | -15% | -7%[46.1 µM] | . | -3% | 12%[46.1 µM] | . | -18%
COc1cc(N/N=C/c2ccccc2O)ncn1 | 8.9µM* | ? | ? | -4% | -5% | ? | -5.0% | 14%
COCCCNC(=O)Cn1cc(C(=O)C2CC2)c2ccccc21 | 22% | -4% | 26% | 9% | 4% | -15% | -1.2% | 10%
Cc1ccc(S(=O)(=O)NCC(=O)OCC(=O)N2C(C)CCCC2C)cc1 (stereo not drawn) | 2% | -9% | 1%[46.1 µM] | . | . | 12%[46.1 µM] | . | -3%

Screening results: PubChem BioAssay, National Center for Advancing Translational Sciences (NCATS)
